From PubChem BioAssay
Methyltransferases = Primary Screen for Target Class Profiling of Small Molecule Inhibitors of Methyltransferases; purified enzyme, MTase-Glo SAH luminescence; active compounds read low; 3.9% of 25,000 active; calls only at 40 µM; active = -50% or lower on at least one of six enzymes; inconclusive = the cases between; inactive = as a rule above -30% on all six;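 also: enzymes were COMT GAMT GNMT HNMT NNMT and PNMT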
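Each enzyme was assayed with SAM and its substrate. SAH formation detected by MTase-Glo luminescence; single-point 40 uM screen[…].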
Calls only; i = inactive; ? = inconclusive; + = active, no number. % is scaled to controls: 0 for no effect and ±100 for the full control effect. Only part of the results is shown. The share of hits here may be higher or lower than overall.

Sample of the layout:
SMILES	Methyltransferases
CCc1cccc(CC)c1-n1c(C=C(C)C)c(C(=O)N2CCNCC2)cc(-c2nc(-c3ccc(C(F)(F)F)cc3)cs2)c1=O	i
Cc1cc(C)cc(NC(=O)Cn2c(-c3cnccn3)nc(C)c(C)c2=O)c1	i

Results, repeating the preview:
SMILES	Methyltransferases
CCc1cccc(CC)c1-n1c(C=C(C)C)c(C(=O)N2CCNCC2)cc(-c2nc(-c3ccc(C(F)(F)F)cc3)cs2)c1=O	i
Cc1cc(C)cc(NC(=O)Cn2c(-c3cnccn3)nc(C)c(C)c2=O)c1	i
Cc1ccc(-c2nnn3c2nc(NCc2ccc4c(c2)OCO4)c2ccccc23)cc1	i
CC1(C(=O)NC2CCCCCC2)Cn2c(ccc2-c2ccco2)C(=O)N1C1CCCCC1 (stereo unspecified)	i
CCCn1c(=O)c2ccc(C(=O)NC(C)C)cc2n2c(=O)n(Cc3ccc(C)cc3)nc12	i
Cc1cc2c(C(C)C)c(O)c(O)c(C=O)c2c(O)c1-c1c(C)cc2c(C(C)C)c(O)c(O)c(C=O)c2c1O	+
CC(=O)SC1CC2=CC(=O)CC[C@]2(C)C2CC[C@@]3(C)C(CC[C@@]34CCC(=O)O4)C12 (stereo partly specified)	i
COC(=O)c1ccccc1O[C@@H]1O[C@H](CO[C@@H]2OC[C@@H](O)[C@H](O)[C@H]2O)[C@@H](O)[C@H](O)[C@H]1O	i
Cc1ccc(CNC(=O)c2cc3n(n2)CC(C)(C(=O)NCCC(C)C)N(C)C3=O)cc1 (stereo unspecified)	i
CC(=O)N1CCn2c(nnc2C2CCCN2Cc2ccc(F)cc2F)C1 (stereo unspecified)	i
CC(c1ccccc1)N1C(=O)c2ccc(-c3ccccc3)n2CC1(C)C(=O)NC1CCCCCCC1 (stereo unspecified)	i
CC(=O)Nc1ccc(C(=O)NCc2nn(Cc3ccccc3)c3ccccc23)cc1	i
CCOC(=O)c1cc2n(n1)CC(C)(C(=O)NC1CCCCC1)N(c1ccccc1C)C2=O (stereo unspecified)	i
CC(CN1C(=O)c2cc3ccccc3n2CC1(C)C(=O)NC1CCCCC1)c1ccccc1 (stereo unspecified)	i
C=C1[C@H](CO)[C@@H](O)C[C@@H]1n1cnc2c(=O)[nH]c(N)nc21	i
CC(C)Cn1c(=O)c2ccc(C(=O)NC(C)C)cc2n2c(=O)n(Cc3ccccc3F)nc12	i
Cc1ccc(C(=O)N2CCC(C(=O)N3CCC(N4CCCC4=O)CC3)CC2)cc1	i
CCCCN1C(=O)c2ccc(-c3ccco3)n2CC1(C)C(=O)NC1CCCCCCC1 (stereo unspecified)	i
CC1=C(C(=O)Nc2ccccc2)C(c2cc(C)ccc2C)N2C(CC(=O)NC(C)C)=CSC2=N1 (stereo unspecified)	i
Cc1ncc2c(c1CNC(=O)c1ccc(OC(F)F)cc1)CCNC2	i
COc1cc2c(cc1O)CC(O)(CO)C(CO)C2c1ccc(OC2OC(CO)C(O)C(O)C2O)c(OC)c1 (stereo unspecified)	i
COc1ccc(Cl)cc1NS(=O)(=O)c1ccc2[nH]c3c(c2c1)CCCC3	i
Cc1c(Cc2ccc3ccccc3n2)c2cc(F)ccc2n1CC(=O)O	i
CC(C)Oc1ccc2c(NC(=O)c3ccc(=O)n(C)n3)nn(CC(F)(F)F)c2c1	i
CCOCCCNc1nc2c(S(=O)(=O)c3ccccc3)nnn2c2ccccc12	i

Among those listed so far, two contain an NH in an aromatic ring:
SMILES	Methyltransferases
C=C1[C@H](CO)[C@@H](O)C[C@@H]1n1cnc2c(=O)[nH]c(N)nc21	i
COc1ccc(Cl)cc1NS(=O)(=O)c1ccc2[nH]c3c(c2c1)CCCC3	i

Further results follow:
SMILES	Methyltransferases
COCCOCC(=O)N1CCC(N2C(=O)CCC2C(=O)NCc2ccccc2)CC1 (stereo unspecified)	i
CC1CCC(NC(=O)Cn2c(=O)oc3cc(S(=O)(=O)NC4CCCC4)ccc32)CC1 (stereo unspecified)	i
CC(O)c1cc2n(n1)CCCN(c1ncnc3ccsc13)C2 (stereo unspecified)	i
CCCCCN(CCCCC)C(=O)C(CCC(=O)O)NC(=O)c1ccc(Cl)c(Cl)c1 (stereo unspecified)	i
CC(C)CCN1CCC2(CC1)COc1ccccc1C(=O)N2	i
FC(F)(F)c1ccc(O[C@H]2COCCN(Cc3cccnc3)C2)nc1	i
CC(C)CCn1c(=O)c2ccc(C(=O)NC3CCCCC3)cc2n2c(=O)n(C)nc12	i
CCCn1c(=O)c2ccccc2n2c(=O)n(Cc3cc(C)ccc3C)nc12	i
COc1cccc(CCC(=O)N2CCCC(CN3CCCC3)CC2)c1 (stereo unspecified)	i
O=C([C@@H]1CCCN(c2ccc3[nH]c(C4(n5cc(Cl)cn5)CC4)nc3n2)C1)N1CCCC1	+
CC1(C(=O)NC2CCCC2)Cn2c(nc3ccccc32)C(=O)N1Cc1cccs1 (stereo unspecified)	i
CCOC(=O)c1cc2n(n1)CC(C)(C(=O)NCCOC)N(c1ccc(Cl)cc1)C2=O (stereo unspecified)	i
CNCC(=O)N1CCC(Cc2cccc(C(N)=O)c2)C1 (stereo unspecified)	i
CCc1cc2c(cc3n2CC(C)(C(=O)NC2CCCCCC2)N(Cc2ccccc2Cl)C3=O)s1 (stereo unspecified)	i
CCCOC(=O)c1c(-c2ccccc2)nc(CC)c(C(=O)SCC)c1CCC	i
COc1ccc(C(=O)N2CCC(N3CCCC3=O)CC2)cc1	i
Cc1onc(C(=O)NCc2ccc3[nH]c(-c4ccc(F)cc4)c(C)c3c2)c1CO	i
COc1ccc(CCNC(=O)c2nnn3cc(C)[nH]c(=O)c23)cc1OC	i
O=C(c1ccc2c(=O)nc3c(-c4ccccc4)n[nH]n3c2c1)N1CCN(c2ccc(F)cc2)CC1	i
O=C(CCc1cc2n(n1)CCNC2)NCc1nc2ccc(Cl)cc2[nH]1	i
Cc1n[nH]c(C)c1CNC(=O)C1CCCCC(=O)N1 (stereo unspecified)	i
COCCNC(=O)C1COC2(CCN(C(=O)C3CC3)CC2)N1C(=O)c1cccc(OC)c1 (stereo unspecified)	i
O=C(CCCn1nc(-c2ccccc2)c2ccccc21)N1CCN(c2ccc(F)cc2)CC1	i
COC(O)(CC(C)C)C1Oc2cc(C)[nH]c(=O)c2O1 (stereo unspecified)	i
COc1cc(OC)nc(N2C[C@H]3OC(=O)N(Cc4ccccc4OC)[C@H]3C2)n1	i

Other compounds
SMILES	Methyltransferases
O=C1CN(Cc2ccc(Cl)cc2)S(=O)(=O)c2ccccc2N1Cc1ccccc1	i
CC(=O)NC1=NN(C(C)=O)C(C)(c2ccccc2)S1 (stereo unspecified)	i
O=C(NCc1c[nH]c2ncccc12)c1cccnc1	i
O=C(NC1CCc2nnc(C3CC3)n2CC1)c1cnco1 (stereo unspecified)	i
O=C(O)c1ccc(CN2CCC[C@H]2c2nc(-c3ccc(OC4CCCCC4)nc3)no2)cc1	i
CC1CCN(C(=O)C[C@@H]2c3nc(NC(=O)CC(C)(C)C)sc3C[C@@H]3[C@](C)(CO)[C@H](O)CC[C@]32C)CC1	i
Cc1cc2c(cc1C(=O)N[C@H](c1ccccn1)C1CC(O)C1)OCCO2 (stereo partly specified)	i
COc1ccccc1CNC(=O)C1(C)Cn2nc(-c3ccccc3)cc2C(=O)N1c1cc(C)cc(C)c1 (stereo unspecified)	i
N#CC1(c2cccc(C(=O)Nc3cc(Oc4ccc5nc(NC(=O)C6CC6)sc5n4)ccc3F)c2Cl)CC1	?
COc1ccccc1OCCNC(=O)C1CCN(c2cc(C(F)(F)F)nc(C)n2)CC1	i
Cc1ccc(Cn2c(=O)c3ccccc3n3c(CCC(=O)NCCC(C)C)nnc23)cc1	i
CCCN1C(=O)c2c(C(=O)NCc3cccc(OC)c3)ncn2CC1(C)C(=O)NCCC(C)C (stereo unspecified)	i
COc1ccc(CNC(=O)CSc2nnc3n(CCC(C)C)c(=O)c4ccccc4n23)cc1	i
CN1C(=O)COC[C@@H]1[C@H](O)c1ccc(NS(=O)(=O)c2ccc(F)cc2)cc1	i
CCOC(=O)c1cc2n(n1)CC(C)(C(=O)NCc1ccc(Cl)cc1)N(Cc1cccc(C)c1)C2=O (stereo unspecified)	i
CCN(CC)c1ccc(NS(=O)(=O)c2ccc3[nH]c4c(c3c2)CCCC4)c(C)c1	i
C=C1C(OC(C)=O)C(=O)C2C(C)(C)C(O)CCC2(C)C1CC(OC(C)=O)/C(C)=C/COC(C)=O (stereo unspecified)	?
CCC(C)NC(=O)c1ccc2c(=O)n(C(C)C)c3nn(CC(=O)Nc4cccc(F)c4)c(=O)n3c2c1 (stereo unspecified)	i
CCOc1ccc(CN2C(=O)c3ccc(-c4ccccc4)n3CC2(C)C(=O)NC2CCCC2)cc1 (stereo unspecified)	i
CO[C@@H]1COCC[C@H]1NC(=O)c1cn(CCN2CCNCC2)nn1	i
COC(=O)C(Cc1c[nH]c2ccccc12)NC(=O)c1ccc(Br)cc1 (stereo unspecified)	i
C=C[C@@]1(C)CCC2=C([C@H]1OC(C)=O)[C@H](OC(C)=O)CC1[C@](C)(C(=O)OC)CC[C@H](OC(C)=O)[C@]21C (stereo partly specified)	i
CC(C)OCCCn1c(=O)c2ccccc2n2c(CCC(=O)Nc3ccc(F)cc3)nnc12	i
CCCSCCCN1C(=O)c2cc3oc(C)cc3n2CC1(C)C(=O)NC1CCCCCCC1 (stereo unspecified)	i
Cc1ccccc1CNC(=O)C1(C)Cc2ccccc2C(=O)N1Cc1cccc(Cl)c1 (stereo unspecified)	i

2 entries from above, set out differently:
CCOc1ccc(CN2C(=O)c3ccc(-c4ccccc4)n3CC2(C)C(=O)NC2CCCC2)cc1 (stereo unspecified)
- Methyltransferases = i

Cc1ccccc1CNC(=O)C1(C)Cc2ccccc2C(=O)N1Cc1cccc(Cl)c1 (stereo unspecified)
- Methyltransferases = i

New compounds follow
SMILES	Methyltransferases
CC1=CC2/C=C(\C)CC[C@@H](O)[C@@H](O)[C@@H]3O[C@@H]3C(=O)[C@]23C(=O)N[C@@H](CC(C)C)[C@@H]3[C@@H]1C (stereo partly specified)	i
CC(=O)N[C@H](Cc1ccc2ccccc2c1)C(=O)N[C@H](Cc1ccc(Cl)cc1)C(=O)N[C@H](Cc1cccnc1)C(=O)N[C@@H](CO)C(=O)N[C@@H](Cc1ccc(O)cc1)C(=O)N[C@H](CCCNC(N)=O)C(=O)N[C@@H](CC(C)C)C(=O)N[C@@H](CCCN=C(N)N)C(=O)N1CCC[C@H]1C(=O)N[C@H](C)C(N)=O	i
CN1CCN(C(=O)c2cc(-c3cccnc3)nc3c2cnn3C)CC1	i
CC(C)CCNC(=O)C1(C)Cn2c(cc3ccccc32)C(=O)N1Cc1cccc(Br)c1 (stereo unspecified)	i
COC(=O)C1=CO[C@@H](O[C@@H]2O[C@H](CO)[C@@H](O)[C@H](O)[C@H]2O)[C@@H]2[C@@H](C(=O)O)CC[C@H]12	i
CC(C)c1cc2n(n1)CC(C)(C(=O)NC1CCCCC1)N(Cc1ccccc1)C2=O (stereo unspecified)	i
Cc1ccccc1CN1C(=O)c2cc3ccccc3n2CC1(C)C(=O)NC1CCCCC1 (stereo unspecified)	i
Cc1ccc(-c2c(-c3nn(C)c4ncnc(N5CC[C@H](N6CCCCC6)C5)c34)cnn2C)cc1	i
CC(O)C(=O)/C=C/C=C/C(=O)OC1C=C2COC(=O)C2(O)C2(C)CCCC(C)(C)C12 (stereo unspecified)	i
CCOc1ccc(C(=O)Cn2nc3n(CCC(C)C)c(=O)c4ccccc4n3c2=O)cc1	i
COc1ccc2cc3n(c2c1)CC(C)(C(=O)NC1CCCCC1)N(Cc1ccccc1F)C3=O (stereo unspecified)	i
CC(C)Cn1c(=O)c2ccc(Cl)cc2n2c(SCC(=O)NC3CCCCC3)nnc12	i
CCC1c2ccc(C)n2CCN1C(=O)Nc1ccc(C)cc1 (stereo unspecified)	i
COc1cccc(CN2CCN(C(=O)c3cnc4ccccn4c3=O)CC2=O)c1	i
O=[N+]([O-])c1ccc(-c2nc(-c3ccc(F)cc3)c(-c3ccncc3)[nH]2)cc1	?
CC(=O)Nc1c2n(c3ccccc13)CC(C)(C(=O)NC1CCCC1)N(CCC1=CCCCC1)C2=O (stereo unspecified)	i
COc1ccccc1N1C(=O)CSc2c(c3ccccc3n2C)C1C(=O)NCc1ccc(F)cc1 (stereo unspecified)	i
COc1cccc(CSc2nnc3n(CCc4ccccc4)c(=O)c4ccccc4n23)c1	i
COc1ccc(CC(=O)NC2CCN(c3nc4ncccc4o3)C2)cc1 (stereo unspecified)	i
CCCCNC(=O)C(CC)n1ccc2cc(S(=O)(=O)N3CCCCC3)ccc21 (stereo unspecified)	i
CCOCCCNC(=O)N1CC2CN(CCOC)CC(C1)O2	i
CCCn1c(=O)c2ccc(C(=O)NC(C)C)cc2n2c(=O)n(CC(=O)N(C)c3ccccc3)nc12	i
CC(=O)O[C@H]1[C@H](OC(=O)C(C)C)[C@]2(C)OC3(CC[C@]2(C)[C@H]2CCC[C@]4(CO4)[C@]12C)COC(=O)C3 (stereo partly specified)	i
CNC(=O)[C@@H]1C[C@@H](n2cc(CNC(=O)Nc3ccc(Cl)cc3C)nn2)CN1	i
CCC1CCCCN1C(=O)Cn1c(=O)oc2cc(S(=O)(=O)N3CCCC3)ccc21 (stereo unspecified)	i
COc1ccc(-c2cc(C[C@H]3CNCC[C@H]3CC(=O)N3CCN(C)CC3)no2)cc1	i
COc1ccc(CC(=O)Nc2ccc3c(c2)CN(CCOc2ccccc2)C(=O)C(C)O3)cc1 (stereo unspecified)	i
Cn1c(=O)c2ccc(C(=O)NC3CCCCC3)cc2n2c(SCC(=O)Nc3ccccc3F)nnc12	i

In another format: 3 of the compounds above.
canonical_smiles,Methyltransferases
O=[N+]([O-])c1ccc(-c2nc(-c3ccc(F)cc3)c(-c3ccncc3)[nH]2)cc1,?
CC(=O)Nc1c2n(c3ccccc13)CC(C)(C(=O)NC1CCCC1)N(CCC1=CCCCC1)C2=O (stereo unspecified),i
COc1ccccc1N1C(=O)CSc2c(c3ccccc3n2C)C1C(=O)NCc1ccc(F)cc1 (stereo unspecified),i
